# Cruzain noTriton – inhibitors of Trypanosoma cruzi cruzain without detergent; purified cruzain, Z-FR-AMC fluorescence, no detergent; hit rate 2.3% among 200,000; Potency, µM, without a hit: max response, negative = inhibition, usual class: inhibitors; AID 1476; active = well fitted curve in the direction sought with a large enough effect; inconclusive = small, poorly fitted or top-dose-only effect, or another doubt; inactive = no such curve, though single readings can be large; an effect the other way counts as inactive or inconclusive;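 note: plate controls were enzyme without inhibitor for no effect and buffer without enzyme for full effect; nearly all actives have a fitted effect of over 40% in size; top concentration of the series not given in the record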
# Target sequence (P25779 123-467 limits assumed): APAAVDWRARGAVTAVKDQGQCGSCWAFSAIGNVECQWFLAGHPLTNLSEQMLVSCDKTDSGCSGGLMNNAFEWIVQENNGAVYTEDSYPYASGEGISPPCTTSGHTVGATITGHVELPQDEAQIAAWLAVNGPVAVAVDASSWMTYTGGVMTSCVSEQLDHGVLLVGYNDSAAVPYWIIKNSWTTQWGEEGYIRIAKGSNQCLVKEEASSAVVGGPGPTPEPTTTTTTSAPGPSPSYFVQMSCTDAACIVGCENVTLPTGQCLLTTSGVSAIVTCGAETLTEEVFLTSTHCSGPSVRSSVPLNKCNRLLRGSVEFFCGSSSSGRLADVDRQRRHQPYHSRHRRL
#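 Detergent-free condition (0.00005% Triton X-100) in acetate buffer pH 5.5 with DTT. 1.5 nM enzyme and compound were pre-mixed 15 min, then 2 uM Z-FR-AMC substrate added; reaction progress from fluorescence change between first and third reads (60 s).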
# RE007 growth inh – less growth of the S. pombe RE007 Vpr strain. S. pombe RE007 Vpr strain, BacTiter-Glo ATP luminescence, 24 h; control for the full effect not named in the record. Potency, µM (titrated, usually from 92.2 µM), inactives show at the highest dose activity change, negative = less growth. hit rate 0.21% among 360,000; active = well fitted falling curve with a large enough effect; inconclusive = small, poorly fitted or top-dose-only effect; inactive = no such curve, though single readings can be large or run the other way;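 note: % is set by controls: 0 for no effect and ±100 for the full control effect; nearly all actives have a fitted effect of over 50% in size; the assay follows cell death caused by Vpr and the record does not say whether a fall means rescue or toxicity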
#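 Fission yeast strain RE007, carrying one chromosomally integrated HIV-1 vpr copy, was seeded at OD 0.01 in PMG+AL medium with 23 nL pinned compound. After 24 h at 30 °C and 99% humidity, viability was read by BacTiter-Glo luminescence.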
# MARV entry inh – inhibitors of Marburg virus binding or cell entry | Marburg virus pseudotyped entry inhibition, cell reporter; control for the full effect not named in the record; about a third of the inactives were read at about 46 µM | Potency, µM (doses to about 37.8 µM), without a hit: at the highest dose activity change, negative = inhibition, usual class: inhibitors | hit rate 1.8% among 300,000; active = well fitted inhibition curve with a large enough effect; inconclusive = small, poorly fitted or top-dose-only effect, or effect the other way; inactive = flat fitted curve, though single readings scatter; tested in HEK293 cells; about a fifth of its hits are not listed in these tables; note: % is set by controls: 0 for no effect and ±100 for the full control effect; luciferase read-out
# LASV entry inh – inhibitors of Lassa virus binding or cell entry; Lassa virus pseudotype entry inhibition, cell reporter; control for the full effect not named in the record; Potency, µM (top dose mostly 37.9 µM), without a hit: at the highest dose activity change, negative = inhibition, actives largely listed as inhibitors; hit rate 1.2% among 300,000; AID 540256; active means well fitted inhibition curve with a large enough effect; inconclusive means small, poorly fitted or top-dose-only effect, or effect the other way; inactive means flat fitted curve, though single readings scatter; tested in HEK293 cells; note: % is set by controls: 0 for no effect and ±100 for the full control effect; nearly all actives have a fitted effect of over 50% in size; luciferase read-out
# NS1 inh – blocks influenza NS1 protein function; Potency, µM (highest dose often 46.1 µM), without a hit: at the highest dose activity, positive = more growth; S. cerevisiae slowed by influenza A NS1, growth recovery by OD600; AID 2326; hit rate 0.4% among 270,000; note: actives are rising curves; nearly all actives have a fitted effect of over 50% in size
#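 Recovery from NS1-induced slow growth read by OD600 in budding yeast switched to galactose assay medium (pH 6.0, -URA) at 1:100 dilution. Compound 23 nl per well; the matching strain lacking NS1 serves as control.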
# SARS PLpro yeast – blocks SARS-CoV papain-like protease in a yeast assay; S. cerevisiae expressing SARS-CoV PLpro, growth rescue; control for the full effect not named in the record; Potency, µM (top dose mostly 32.9 µM), inactives show top-dose activity, positive = growth rescue; hit rate 0.19% among 330,000; note: 0% is about no effect; nearly all actives have a fitted effect of over 55% in size; growth read by luminescence after 48 h
# Cruzain inh Det – inhibitors of Trypanosoma cruzi cruzain with detergent. Potency, µM, without a hit: max response, negative = inhibition, hits mostly inhibitors. hit rate 0.43% among 200,000. purified cruzain, Z-FR-AMC fluorescence, 0.01% Triton. AID 1478. P25779; active = well fitted curve in the direction sought with a large enough effect; inconclusive = small, poorly fitted or top-dose-only effect, or another doubt; inactive = no such curve, though single readings can be large; an effect the other way counts as inactive or inconclusive;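 note: plate controls were neutral wells for no effect and buffer without enzyme for full effect; nearly all actives have a fitted effect of over 40% in size; top concentration of the series not given in the record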
#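 15 min RT preincubation of 1.5 nM cruzain with compound, then 2 uM Z-FR-AMC added; kinetic AMC fluorescence, 60 s delta. Triton X-100 0.01%, pH 5.5.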
# StopGo reporter – FMDV 2A StopGo reporter, luciferase signal | human cells with a luciferase reporter of 2A StopGo recoding; control for the full effect not named in the record | Potency, µM (top dose mostly 57.9 µM), inactives show at the top dose signal change, negative = less light | hit rate 1.2% among 410,000; active = well fitted falling curve with a large enough effect; inconclusive = small, poorly fitted or top-dose-only effect; inactive = no such curve, though single readings can be large or run the other way; tested in HEK293T cells; note: % is set by controls: 0 for no effect and ±100 for the full control effect; nearly all actives have a fitted effect of over 45% in size; luciferase light after 4 h
# Active calls of the source: *; ? = inconclusive; . = no result given; & = joins results of further samples; [ ] = remark or other dose. Unless noted, calls come from the whole dose curve; as a rule, active means well fitted rising curve with a large enough effect; inconclusive means small, poorly fitted or top-dose-only effect; inactive means no such curve, though single readings can be large or run the other way. Potency is the fitted concentration of half-maximal effect.
nr | structure | Cruzain noTriton | RE007 growth inh | MARV entry inh | LASV entry inh
1 | COc1ccc(CC2(CO)CCN(Cc3ccc4nsnc4c3)CC2)cc1 | . | -29% | ? | -3%[46.1 µM]
2 | CCCCCCC12CCC(C(=O)O)(CC1)CC2 | 8% | . | . | .
3 | CCc1ccc(C(=O)N2CCC(c3nc(-c4ccc(S(=O)(=O)N5CCCC5)cc4)no3)CC2)cc1 | 1% | . | ? | -1%[46.1 µM]
4 | CC(=O)Nc1ccc2nc(-c3ccc(Br)o3)[nH]c2c1 | -27% | -5% | 4% | ?
5 | O=c1[nH]c2cc3c(cc2cc1CN(CCCO)Cc1nnnn1Cc1ccc(F)cc1)OCO3 | -9% | 17% | 0%[46.1 µM] | -11%
6 | CCN1CCN(c2nc3c(c(=O)n(C)c(=O)n3C)n2CCSc2ncccn2)CC1 | -5% | -16% | 22% | -7%
7 | CN(C)CCOC(=O)c1ccc2c(c1)S(=O)(=O)c1ccccc1C2=O | . | 11% | 4%[46.1 µM] | 3%
8 | COc1cccc(C2CCCN2Cc2nc(-c3sccc3C)oc2C)c1 (stereo unspecified) | . | 5% | ? | ?
9 | O=C(C1=C(O)C(=O)N(CCN2CCOCC2)C1c1ccc(Cl)cc1)c1cc2ccccc2o1 (stereo unspecified) | . | 1% | . | .
10 | CCOc1cccc(-c2cc(C(=O)N3N=C(C)CC3(O)C(F)F)c3ccccc3n2)c1 (stereo unspecified) | . | 5% | -16%[46.1 µM] | .
11 | COc1ccc2ccccc2c1CNC(C)CCc1ccccc1 (stereo unspecified) | . | -16% | ? | ?
12 | N#C/C(=C/c1cccc([N+](=O)[O-])c1)C(=O)Nc1ccccc1O | . | 1% | . | .

nr | NS1 inh | SARS PLpro yeast | Cruzain inh Det | StopGo reporter
1 | 1% | 2% | . | 11%
2 | 3% | -19% | -9.4% | .
3 | . | . | 0.6% | -22%
4 | -8% | 1% | -19% | 56%[activator]
5 | 1% | -3% | -8.6% | 0%
6 | -4% | 1% | -1.8% | -6%
7 | 0% | 2% | . | -2%
8 | -2% | -2% | . | -17%
9 | 8% | 0% | . | -20%
10 | . | -4% | . | 19%
11 | -9% | -3% | . | -5%
12 | -39% | -4% | . | 0%

# Sorted by formula weight (falling): some entries from above
nr | structure | Cruzain noTriton | RE007 growth inh | MARV entry inh | LASV entry inh
6 | CCN1CCN(c2nc3c(c(=O)n(C)c(=O)n3C)n2CCSc2ncccn2)CC1 | -5% | -16% | 22% | -7%
1 | COc1ccc(CC2(CO)CCN(Cc3ccc4nsnc4c3)CC2)cc1 | . | -29% | ? | -3%[46.1 µM]
4 | CC(=O)Nc1ccc2nc(-c3ccc(Br)o3)[nH]c2c1 | -27% | -5% | 4% | ?
11 | COc1ccc2ccccc2c1CNC(C)CCc1ccccc1 (stereo unspecified) | . | -16% | ? | ?

nr | NS1 inh | SARS PLpro yeast | Cruzain inh Det | StopGo reporter
6 | -4% | 1% | -1.8% | -6%
1 | 1% | 2% | . | 11%
4 | -8% | 1% | -19% | 56%[activator]
11 | -9% | -3% | . | -5%

# More compounds:
nr | structure | Cruzain noTriton | RE007 growth inh | MARV entry inh | LASV entry inh
13 | CCOc1cc(-c2nc3ccccc3s2)ccc1O | . | -12% | 12%[46.1 µM] | 2%
14 | CC(C)(C)c1ccc(C(=O)Nc2ccc([N+](=O)[O-])cn2)cc1 | ? | -6% | 3% | ?
15 | COc1cccc(NC(=O)C2CCCCC2)c1 | 3% | -1% | 0%[46.1 µM] | 4%
16 | COc1ccc(OC)c(C(=O)Cn2cnc3ccccc3c2=O)c1 | . | 4% | -14%[46.1 µM] | 18%
17 | CCC(=O)N(Cc1cc(=O)[nH]c2ccccc12)c1ccccc1OC | . | 5% | 6%[46.1 µM] | 10%[46.1 µM]
18 | O=C(NNC(=O)c1cc(Cl)ccc1[N+](=O)[O-])c1csc(N2CCOCC2)n1 | . | -17% | -12%[46.1 µM] | 13%
19 | Cc1cccc(N2CCN(C(=S)Nc3ccc4nc(N5CCOCC5)cc(C)c4c3)CC2C)c1 (stereo unspecified) | . | -2% | ? | -12%
20 | CCC(Oc1ccccc1)C(=O)Nc1ccccc1N1CCCC1 (stereo unspecified) | . | -4% | ? | 5%[46.1 µM]
21 | CCCNS(=O)(=O)c1cccn1-c1ncc(C(F)(F)F)cc1Cl | -8% | 12% | 10% | 14%
22 | COc1ccc2nc(Nc3sc4c(c3C(N)=O)CCCC4)sc2c1 | -3% | ? | 6% | -3%
23 | O=c1[nH]c2ccccc2cc1CN(CC1CCCO1)S(=O)(=O)c1ccc(Cl)cc1 (stereo unspecified) | . | -3% | ? | -20%[46.1 µM]
24 | Cc1cc(/C(N)=N/OC(=O)c2cccc(Cl)c2)no1 | . | -5% | ? | ?

nr | NS1 inh | SARS PLpro yeast | Cruzain inh Det | StopGo reporter
13 | -39% | -3% | . | 50%[activator]
14 | 9% | 16% | -1.5% | -2%
15 | -12% | -19% | -0.5% | 55%[activator]
16 | -7% | -1% | . | 6%
17 | 2% | -2% | . | -6%
18 | . | . | . | 17%
19 | . | -2% | . | -5%
20 | 1% | -6% | . | ?
21 | -4% | -6% | 3.2% | 12%
22 | 12% | -66% | -8.6% | -8%
23 | -7% | -1% | . | -13%
24 | -3% | 0% | . | 48%[activator]

# New compounds follow
nr | structure | Cruzain noTriton | RE007 growth inh | MARV entry inh | LASV entry inh
25 | Cn1c(CSc2nc3ccccc3n2C)nc2ccccc21 | 12% | 19% | ? | 11%
26 | N#C/C(=C\c1ccc(OCc2ccc(C(=O)O)cc2)cc1)C(=O)N1CCOCC1 | 1% | 6% | 0.92µM* | 1.8µM*
27 | CSc1cccc(-n2ccc(=O)c(C)c2C)c1 | . | 22% | -16%[46.1 µM] | 5%[46.1 µM]
28 | CCc1ccc(NCc2cc3cc(OC)c(OC)cc3n(CC(=O)Nc3ccc(F)cc3)c2=O)cc1 | -16% | . | . | ?
29 | Cc1cccc(-c2nc(SCC(=O)N3CCc4ccccc43)c3c(=O)n(C)c(=O)n(C)c3n2)c1 | 4% | . | . | 5%[46.1 µM]
30 | Cc1ccc(Cl)cc1N1CCN(S(=O)(=O)c2ccc3c(c2)OCCO3)CC1 | ? | -3% | -14% | -25%
31 | Nc1ncc2[nH]c(N)nc2n1 | . | 101% | 0%[46.1 µM] | 16%[46.1 µM]
32 | Cc1cc(N2CCN(c3ccc([N+](=O)[O-])c4cccnc34)CC2)c2ccccc2n1 | 8% | ? | 4% | ?
33 | CCOC(=O)c1cn(C2CC2)c2c(F)c(F)c(F)cc2c1=O | . | 7% | ? | 5%
34 | Cc1ccccc1CNC(=O)Cn1nc(C)c2nn(-c3ccc(Cl)cc3)c(C)c2c1=O | -1% | . | . | -2%[46.1 µM]
35 | CC(C)NS(=O)(=O)c1ccc(CCC(=O)N2CCOCC2)cc1 | 6% | -11% | -15% | -3%
36 | COc1cccc(N2CCN(C(=S)Nc3cccc(C)c3)CC2)c1 | -13% | -13% | -8% | -6%

nr | NS1 inh | SARS PLpro yeast | Cruzain inh Det | StopGo reporter
25 | -38% | -5% | 2.7% | 16%
26 | 14% | -6% | -2.0% | ?
27 | -1% | -1% | . | -25%
28 | . | . | -5.9% | -9%
29 | . | . | 1.6% | -18%
30 | -4% | -7% | 2.6% | -9%
31 | . | . | . | -4%
32 | 13% | 5% | -15% | ?
33 | . | -3% | . | -15%
34 | . | . | 4.7% | ?
35 | 23% | 16% | 4.6% | 11%
36 | 29% | 1% | 3.0% | 18%

# Next section:
nr | structure | Cruzain noTriton | RE007 growth inh | MARV entry inh | LASV entry inh
37 | Brc1cnc2nc(SCc3nc4ccccc4[nH]3)[nH]c2c1 | . | -5% | . | .
38 | Cc1ccccc1-c1noc(-c2ccc(N3CCN(c4ccccc4)CC3)c([N+](=O)[O-])c2)n1 | 7% | . | 3%[46.1 µM] | 10%[46.1 µM]
39 | O=C(CSc1nnnn1-c1ccc2c(c1)OCCO2)N1CCc2ccccc21 | ? | 5% | -22% | 13%
40 | O=C(NN=C(c1ccccc1)c1ccccn1)c1ccccc1 | . | ? | 6.3µM* | ?
41 | Cc1cccc(NC(=O)c2cc(-c3cccnc3)nc3c(C)cccc23)n1 | . | 12% | ? | -13%
42 | Cc1nc(C)c(-c2csc(Nc3ccc(S(N)(=O)=O)cc3)n2)s1 | . | 1% | ? | ?
43 | Nc1ccc2c(c1)C(=O)c1ccccc1-2 | . | -10% | ? | 11%[46.1 µM]
44 | COC(=O)c1ccccc1NC(=O)CN1CCC(n2nnc3cc(C(F)(F)F)ccc32)CC1 | ? | 8% | -25% | -2%
45 | O=c1c2cc(Br)ccc2[nH]c(=S)n1Cc1cccnc1 | -10% | 0% | 4% | 15%
46 | COc1ccccc1NC(=O)C1CCN(S(=O)(=O)c2ccc3[nH]c4c(c3c2)CCCCC4)CC1 | 20µM* | . | . | -3%[46.1 µM]
47 | COc1ccc2c(c1)c1c(c(=O)n(Cc3ccccc3)c(=O)n1CC(=O)NCc1ccccc1Cl)n2C | 11% | . | -5%[46.1 µM] | 7%[46.1 µM]
48 | COc1cccc(C2/C(=C(/O)c3cnn(-c4ccccc4)c3C)C(=O)C(=O)N2CCN(C)C)c1 (stereo unspecified) | -17% | -9% | 0%&0% | 10%
49 | COc1ccc(CNC(=O)[C@H](C)NC(=O)C2CCN(S(=O)(=O)c3ccc(C)cc3)CC2)cc1 | 8% | 8% | 20% | ?
50 | Cc1[nH][nH]c(=O)c1C(c1ccc(-c2ccc(Cl)cc2Cl)o1)c1c(C)[nH][nH]c1=O | -8% | . | -3% | .

nr | NS1 inh | SARS PLpro yeast | Cruzain inh Det | StopGo reporter
37 | ? | 1% | . | -9%
38 | . | . | -10.0% | -3%
39 | 0% | 4% | 2.2% | .
40 | . | -23% | . | -14%
41 | 0% | -2% | . | ?
42 | 13% | -1% | . | -19%
43 | . | . | . | 0%
44 | 17% | 6% | -1.3% | 0%
45 | -3% | -1% | 3.0% | -4%
46 | . | . | -3.0% | 2%
47 | . | . | 1.2% | -23%
48 | -1% | 25% | -2.3% | -7%
49 | 1% | -5% | 8.2% | -2%
50 | 1% | -13% | -3.3% | .
